VDR inh: Inhibitors of the vitamin D receptor (VDR): qHTS | 400,000 tested, 0.93% active | Potency, µM, without a hit: max response, negative = inhibition, usual class: inhibitors | VDR-SRC2-3 peptide fluorescence polarization, 2 h | Vitamin D3 receptor (Homo sapiens), P11473; active means well fitted inhibition curve with a large enough effect; inconclusive means small, poorly fitted or top-dose-only effect, or another doubt; inactive means no such curve, though single readings can be large or run the other way; further: series mostly up to about 120 µM
Target sequence (P11473 whole entry, looked up): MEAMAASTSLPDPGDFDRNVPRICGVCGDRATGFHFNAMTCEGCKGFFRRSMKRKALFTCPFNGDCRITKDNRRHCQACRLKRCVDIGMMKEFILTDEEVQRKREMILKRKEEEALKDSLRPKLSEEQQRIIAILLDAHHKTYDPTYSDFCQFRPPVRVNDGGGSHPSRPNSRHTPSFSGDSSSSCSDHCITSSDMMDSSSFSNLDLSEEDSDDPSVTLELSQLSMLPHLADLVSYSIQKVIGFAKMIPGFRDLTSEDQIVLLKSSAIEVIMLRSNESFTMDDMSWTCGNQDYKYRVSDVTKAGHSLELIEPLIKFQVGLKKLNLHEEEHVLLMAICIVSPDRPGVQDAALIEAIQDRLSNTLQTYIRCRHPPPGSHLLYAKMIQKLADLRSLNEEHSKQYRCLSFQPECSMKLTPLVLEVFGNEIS
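Fluorescence polarization assay measuring small-molecule disruption of VDR binding to the coregulator peptide SRC2-3. Compounds were pin-transferred (23 nl) into the reagent mix and incubated 2 h at room temperature before reading.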
Starred values were filed as active, the others as inactive; u = inconclusive; & = joins results of further samples; [ ] = remark or other dose. On the % scale 0 is the no-effect control and ±100 the full control effect; potency means the concentration at half of the fitted maximal effect. A portion of the library (hit frequency here may not be typical).

Preview:
SMILES	VDR inh
CC(=O)c1c(C)n(CC(=O)NCc2ccco2)c2ccccc12	26.4%
CCOC(=O)C1CCCN(CC(=O)Nc2nccs2)C1 (stereo not given)	-12.3%
CC(C(=O)N1CCN(c2ccc(Cl)cc2)CC1)c1ncc(C(F)(F)F)cc1Cl (stereo not given)	7.2%

Results (from the top)
SMILES	VDR inh
CC(=O)c1c(C)n(CC(=O)NCc2ccco2)c2ccccc12	26.4%
CCOC(=O)C1CCCN(CC(=O)Nc2nccs2)C1 (stereo not given)	-12.3%
CC(C(=O)N1CCN(c2ccc(Cl)cc2)CC1)c1ncc(C(F)(F)F)cc1Cl (stereo not given)	7.2%
Cc1nnc(SCC(=O)N2CCCC(C(=O)c3ccc(Cl)cc3)C2)o1 (stereo not given)	-2.5%
O=C(CCC(=O)N(CC(=O)NC1CCCC1)Cc1ccc(F)cc1)Nc1nccs1	-14.0%
O=C(NCc1ccc(F)cc1)c1ccc2c(c1)N(Cc1ccc(F)cc1Cl)C(=O)CS2	-14.0%
O=C(CSc1cccc2cccnc12)N/N=C/c1ccc(O)cc1	-7.9%
Cc1cccc(NC(=O)COC(=O)Cc2cccs2)c1C	-19.6%
COCc1nnc(NC(=O)c2ccc(NC(=O)C(C)C)cc2)s1	-3.0%
Brc1ccc(-c2ccc(/C=N/Nc3nncc(-c4ccccc4)n3)o2)cc1	1.7%
CCCc1cc(=O)oc2c(CN3CCCC3)c(O)c(Cl)cc12	6.6%
Cc1ccc2c(CSc3nc4ccccc4c(=O)n3CCCO)cc(=O)oc2c1	-8.5%
CCOc1ccc(Br)cc1CN(CC)CC	0.3%
CNC(=S)N1CCN(c2nc3ccccc3s2)CC1	8.3%
COC(=O)CNC(=O)C1Nc2ccccc2C2C=CCC12 (stereo not given)	u
O=C(O)c1ccccc1-c1nc(-c2ccccc2)c(-c2ccccc2)[nH]1	-12.6%
Cc1ccc(CS(=O)(=O)Cc2ccc(C(=O)NC3CC3)o2)cc1	-3.0%
CC(C)(C)C(=O)N1CCN(c2ccc([N+](=O)[O-])c(NCc3cccnc3)c2)CC1	-5.9%
Cn1cc(C(=O)NCc2ccccc2)c(=O)c2cc(S(=O)(=O)N3CCCCCC3)ccc21	11.7%
CCOC(=O)CSc1nc(N2CCOCC2)c2c(c1C#N)CC(C(C)C)OC2 (stereo not given)	-8.8%
CC(=O)Nc1ccc(S(=O)(=O)Oc2ccccc2N2CCCCC2)cc1	-4.6%
Cc1cc(=O)nc2c3ccccc3n(C(C)C(=O)Nc3c(F)c(F)c(F)c(F)c3F)n12 (stereo not given)	-11.3%
C/C(=N\NC(=O)c1cc(Cl)ccc1O)c1ccc(Br)s1	15.1%
O=C(O)c1cc(N/N=C/c2cccnc2)ccc1Cl	9.3%
O=C(C[C@@H]1C/C=C\C[C@@H](Cc2ccc(F)cc2)C(=O)OC[C@H]2CCCN2C1=O)N[C@H](CO)Cc1ccccc1	12.6%
CC(=O)Nc1ccc(C(=O)Nc2cccc(S(=O)(=O)N(C)c3ccccc3)c2)cc1	-12.8%
Nc1nc(CSc2nnnn2-c2ccc(F)c(Cl)c2)nc(N2CCOCC2)n1	24.6%
CC1CCCN(C(=O)C2CCC(CNc3c(N4CCCCC4)c(=O)c3=O)CC2)C1 (stereo not given)	-5.7%
COc1cc(C(C)=O)ccc1OCC(=O)NCC1(N2CCCCC2)CCCCC1	-16.3%
CCOC(=O)Cc1c(C)nc2c(-c3ccccc3)c[nH]n2c1=O	-7.2%
COC(=O)C(COC(=O)c1c(F)cccc1F)NC(=O)c1c(F)cccc1F (stereo not given)	7.0%
COc1ccc(CNC(=O)Cn2ccc(NC(=O)OCc3ccccc3)nc2=O)cc1	-0.1%
CCn1c(C(=O)NCCCc2ccccc2)cc2sccc21	-0.3%
COc1ccc(-c2cc(C(F)(F)F)nc(N)n2)cc1	-8.0%
C#CCOCCOCCOCCNc1nc(N2CCN(C(=O)CCCCCCCCCCNC(=O)Cn3cc(CCCCCN)nn3)CC2)nc(N2CCN(C(=O)CCCCCCCCCCNC(=O)Cn3cc(C[C@@H](C)O)nn3)CC2)n1	36.1%[activator]
CCOC(=O)c1nn(-c2ccc(C)c(C)c2)c(=O)c(C#N)c1C	-16.0%
COc1ccc(/C=C2\Oc3cc(OCC(=O)N4CCC(C(=O)O)CC4)ccc3C2=O)c(OC)c1OC	-0.6%
Cc1nnc(NC(=O)C(c2ccccc2)c2ccccc2)s1	13.7%
O=C(Nc1cccc(S(=O)(=O)N2CCCCCC2)c1)C1=COCCO1	-12.9%
N/C(=N\OC(=O)c1cccc(Cn2cc(C(F)(F)F)ccc2=O)c1)c1ccccc1	-23.8%
COc1ccc(C2C(C#N)=C(N)Oc3n[nH]c(C)c32)cc1Cn1nnc2ccccc21 (stereo not given)	u
CCC(=NCc1ccccc1)C1=C(O)C(C(=O)OC)C(C)(C)CC1=O (stereo not given)	17.3%
COc1cc(F)c(C2=CC(=O)CC(C)(C)C2)cc1F	-6.2%
Cn1c(C2=C(O)CN(Cc3ccccc3)C2=N)[n+](C)c2ccccc21	9.1%
O=C(NC12CC3CC(CC(C3)C1)C2)c1cc(F)c(F)c(F)c1F	-7.3%
COc1ccc(NC(=O)CSc2nccn2C)cc1S(N)(=O)=O	-4.7%
Cc1c(Cl)cccc1NC(=O)CNC(=O)c1ccccc1F	-7.1%
Cc1cccc(NC(=S)NC(=O)c2ccc(-c3ccccc3)cc2)n1	-8.8%
O=C(CSc1nc2c(sc3ccccc32)c(=O)n1CCc1ccccc1)NCc1ccco1	15.5%
Cc1nn(CCC(=O)Nc2cccc(C#N)c2)c(C)c1S(=O)(=O)N1CCC(C)CC1	0.5%
CCCCNC(=O)C(C)N(CCN(C)C)C(=O)CCCN1C(=O)NC(c2ccc([N+](=O)[O-])cc2)C(C(=O)OCc2ccccc2)=C1C (stereo not given)	-19.0%
Cc1c(Cl)cccc1NC(=O)[C@@]1(CC(=O)O)CC(/C=C/c2ccccc2)=NO1	-5.1%
COc1ccc(CCNC(=O)C(=O)NCC2OCCN2C(=O)c2ccc(Cl)cc2)cc1 (stereo not given)	-6.2%
CN(C)S(=O)(=O)c1cccc(NC(=O)COC(=O)[C@H](Cc2ccccc2)NC(=O)c2ccco2)c1	14.1%
Cc1cccc(C(=O)CC(=O)c2cc(Cl)ccc2O)c1	23.6%
Cc1ccc2nc(NC(=O)C3CCN(C(=O)c4ccc(F)cc4)CC3)sc2c1	-6.4%
CSc1ccc(CNc2ccccn2)cc1	2.2%
CN(C)c1ccc(NC(=O)Cn2c(SCc3ccccc3F)nc3cccnc32)cc1	3.6%
O=C(COC(=O)Cc1n[nH]c(=O)c2ccccc12)Nc1c(Cl)cccc1C(F)(F)F	-3.3%
CCOC(=O)c1ccc(NC(=O)CCc2c(C)nc3cc(-c4ccc(OC)cc4OC)nn3c2C)cc1	-8.3%

Seven compounds from above, sorted by number of heavy atoms, low to high.
SMILES	VDR inh
CSc1ccc(CNc2ccccn2)cc1	2.2%
Cc1ccc2nc(NC(=O)C3CCN(C(=O)c4ccc(F)cc4)CC3)sc2c1	-6.4%
O=C(COC(=O)Cc1n[nH]c(=O)c2ccccc12)Nc1c(Cl)cccc1C(F)(F)F	-3.3%
COc1ccc(CCNC(=O)C(=O)NCC2OCCN2C(=O)c2ccc(Cl)cc2)cc1 (stereo not given)	-6.2%
O=C(CSc1nc2c(sc3ccccc32)c(=O)n1CCc1ccccc1)NCc1ccco1	15.5%
CN(C)S(=O)(=O)c1cccc(NC(=O)COC(=O)[C@H](Cc2ccccc2)NC(=O)c2ccco2)c1	14.1%
CCCCNC(=O)C(C)N(CCN(C)C)C(=O)CCCN1C(=O)NC(c2ccc([N+](=O)[O-])cc2)C(C(=O)OCc2ccccc2)=C1C (stereo not given)	-19.0%

Next section
SMILES	VDR inh
COc1ccc(C(=O)N2CCCC(c3ccccc3)C2)cc1 (stereo not given)	-15.0%
COC(=O)c1sccc1NC(=O)CSc1ccccc1NS(=O)(=O)c1ccc(F)cc1	-0.3%
COc1ccc(C(=O)CCc2ccc(OC)c(OC)c2)cc1	-4.9%
CCc1ccc(NC(=O)C2CC=CCC2C(=O)O)cc1 (stereo not given)	1.0%
CCOc1cc(NC(=S)NC)c(OCC)cc1NC(=O)c1ccco1	-13.8%
Cc1ccc(NC(=O)c2ncn(CC(=O)N3CCN(c4ccccn4)CC3)n2)cc1C	-16.6%
CCOc1ccc(NC(=O)c2oc(=O)c3ccccc3c2-c2ccc(C)cc2)cc1	3.8%
CCCN1C(=O)/C(=C\c2nc3ccccc3c(=O)[nH]2)c2ccccc21	-21.4%
COc1cccc(NC(=O)CN(c2ccc([N+](=O)[O-])cc2)S(=O)(=O)c2ccccc2)c1	-0.4%
C#CCOCCOCCOCCNc1nc(N2CCN(C(=O)CCCCCCCCCCNC(=O)[C@H](CCCCN)n3cc(CCO)nn3)CC2)nc(N2CCN(C(=O)CCCCCCCCCCNC(=O)[C@H](CCCCN)n3cc(CCCC(=O)O)nn3)CC2)n1	-9.6%
COc1ccc(Cl)cc1NC(=O)CSc1nc2ccccc2c2nc(-c3ccccc3)nn12	11.0%
O=C(O)c1ccccc1-c1ccccc1C(=O)NCc1cccc(C(F)(F)F)c1	10.6%
CC(C)(C)C(=O)Nc1ccc(Sc2ccc([N+](=O)[O-])cc2)cc1	1.7%
O=C(COC(=O)/C=C/c1ccccc1)NNC(=O)c1ccc([N+](=O)[O-])cc1	0.1%
CCc1ccc(-c2[nH]c3c(c2-c2c(-n4cccc4)n(C)c(=O)n(C)c2=O)c(=O)n(C)c(=O)n3C)cc1	2.8%
CCn1c(SCC(=O)N/N=C(\C)c2ccncc2)nnc1-c1ccc(C)cc1	13.7%
CN(CC(=O)Nc1cccc(F)c1)C(=O)C1CC(=O)N(Cc2ccccc2)C1 (stereo not given)	-7.9%
COC(=O)NNC(=S)NCc1ccccc1	6.3%
Cc1ccc(/C=C2/Sc3ccc(C(=O)NCc4ccccn4)cc3NC2=O)cc1	-11.2%
Cc1ccc2nc(Nc3nc(CSc4nnc(C)s4)cc(=O)[nH]3)nc(C)c2c1	-8.5%
Clc1cccc(CN2CCCCCCC2)c1Cl	1.0%
CC1CCN(c2c(NCc3ccc(C(=O)NCc4ccco4)cc3)c(=O)c2=O)CC1	-16.3%
O=C(CS(=O)(=O)Nc1ccc(F)cc1Cl)Nc1ccc(F)cc1Cl	-0.4%
Cc1cccn2c(=O)c3cc(C(=O)NCc4ccccc4Cl)sc3nc12	9.6%
Cc1ccc(C)c(/C=N/NC(=S)NCCc2ccccc2)c1	5.5%
CCOC(=O)c1ccc(NC(=S)N2CCN(CCO)CC2)cc1	u
COc1ccc(OC)c(S(=O)(=O)N2CCCC(C(=O)N3CCC(C(N)=O)CC3)C2)c1 (stereo not given)	-6.0%
Cc1cc(C)c(NC(=O)C2CCCN2C)c(C)c1 (stereo not given)	8.4%
CNC(=O)/C(C#N)=C/c1c(F)cccc1Cl	u
Cc1ccc(OCc2nc(-c3ccccc3)no2)cc1	u
Oc1ccccc1CNc1ccc2c(c1)OCCO2	11.2%
CC1=C(C(=O)OC2CCCCC2)C(c2ccco2)C2=C(CC(C)(C)CC2=O)N1 (stereo not given)	5.1%
CCOc1ccc(/C=C/C(=O)c2ccccc2)cc1OC	79.4µM*
COC(=O)c1cccc(NC(=O)CCc2c(C)noc2C)c1	-5.3%
COc1ccc(CC2(CO)CCN(Cc3cccn3-c3ccccn3)CC2)cc1	-15.8%
COc1cc2c(=O)n(CCC(=O)NCC3CCCO3)c(=O)n(CC(=O)Nc3ccc(F)cc3)c2cc1OC (stereo not given)	2.4%&7.7%
CCOC(=O)Cn1c(=O)n(C2CCCCC2)c2nc(-c3ccccc3Cl)nc(C(N)=O)c21	9.0%
CN(C)Cc1ccccc1-c1cc(NCc2ccccc2)ncn1	-5.9%
CCCCn1c(SCC(=O)N2CCCCC2)nc2cc(S(N)(=O)=O)ccc21	-11.7%
O=C(Nc1cnn(Cc2ccc(Cl)c(Cl)c2)c1)c1nc2ncccn2n1	-2.8%
CN(/N=C/c1ccc(O)cc1O)c1nc(-c2ccccc2)cc(-c2ccccc2)n1	-15.7%
CC1=C(C#N)C(NC(=O)c2cccc(Cl)c2)(C(F)(F)F)C(=O)N1 (stereo not given)	-17.6%&17.7%
CN(C)c1ccc(/C=C/C(=O)c2ccc(C(C)(C)C)cc2)cc1[N+](=O)[O-]	1.3%
CCCCn1c(=O)n(Cc2cccc(F)c2)c(=O)c2c1ncn2Cc1ccco1	-16.1%
Cc1ccc(NS(=O)(=O)c2cccc(C(=O)N/N=C/c3c(C)nn(-c4ccccc4)c3N3CCCC3)c2)c(C)c1	-4.3%
O=C(/C=C/c1cccs1)Nc1nncs1	13.2%
C[C@@H]1CN([C@@H](C)CO)C(=O)c2cccc(NC(=O)Nc3ccccc3)c2O[C@H]1CN(C)C(=O)Nc1cccc2ccccc12	-9.5%
Cc1nc2sc(C(c3ccc(Cl)cc3)N3CC(C)OC(C)C3)c(O)n2n1 (stereo not given)	5.2%
C=CCOc1c(CNc2ncn[nH]2)cccc1OCC	21.1%
COc1cc(CN(C)CCc2ccccc2)ccc1OCc1ccccc1	6.8%
Cc1cc(C)n(-c2nc3cc(Cl)c(Cl)cc3nc2Nc2c(C)cccc2C)n1	-0.6%
COc1ccc(/C=C(/C#N)S(=O)(=O)c2ccc(C)cc2)cc1	15.0%
COc1ccc(NC(=O)C(C)N(c2ccc(C)cc2)S(C)(=O)=O)cc1 (stereo not given)	-7.0%
O=C(c1cccs1)N1CCN(S(=O)(=O)Cc2ccccc2)CC1	-5.8%
Cc1ccc(S(=O)(=O)c2cc3cc(C(=O)O)ccc3oc2=O)cc1	12.3%
CCOc1ccc(-c2cc(NC(=O)Nc3ccc(Cl)cc3)c(C(=O)OC)s2)cc1	12.5%
CC1CCCCN1C(=O)CN1CCC(c2nc3ccc(Cl)cc3[nH]2)CC1 (stereo not given)	-0.8%
CCOC(=O)c1cc(N)cc([N+](=O)[O-])c1	-2.6%
O=C(N=C1N=C2C=CC=CN2Cc2ccccc21)c1ccc(S(=O)(=O)N2CCCC2)cc1	11.0%
CN(C(=O)CC1C(=O)NCCN1Cc1ccc(F)cc1Cl)C1CCCCC1 (stereo not given)	-2.0%

Source: PubChem
